# CDC25B CDK2 inh – human CDC25B-CDK2/CyclinA binding inhibition; HTRF CDC25B-CDK2/CyclinA binding, anti-His/anti-Flag; stronger effect = higher value; z-score (concentration not given with the values); actives 0.72% (n = 94,000);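 also: score is relative to mean and SD of negative controls; strong numbers were not always called active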
# TAR Tat displ – HIV-1 TAR-Tat binding disruption; HIV-1 TAR RNA, Tat peptide displacement FRET; stronger effect = higher value; z-score (test concentration not listed); actives 0.6% (n = 100,000); AID 1259389;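 also: score is relative to mean and SD of negative controls; some compounds called inactive have numbers as strong as hits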
# Active calls of the source: *; nt = no result given.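 The calls were made as follows: active = z-score from 3 up in half or more of its runs; inactive = the rest.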
SMILES,CDC25B CDK2 inh,TAR Tat displ
Cc1cc(C)nc(NS(=O)(=O)c2ccc(Nc3nc(-c4c(C)nc5ncccn45)cs3)cc2)n1,-1.2,-1.6
O=S1(=O)C[C@H](N2CCN(c3ccccc3F)CC2)[C@@H](S(=O)(=O)c2ccc(Cl)cc2)C1,-1.7,0.78
Cn1nc(C(=O)NCC2CCCO2)c2c1-c1ccccc1SC2 (configuration not stated),0.29,-0.18
CCc1nn2c(=O)cc(CSc3nnc(-c4cccc(C)c4)o3)nc2s1,-0.74,-3
Cc1ccc(N2C(=O)C3CC=CC(C)C3C2=O)cc1Cl (configuration not stated),-0.67,nt
COc1ccccc1-c1coc2cc(OC(=O)c3cccc(Cl)c3)ccc2c1=O,-3,-0.2
Fc1ccccc1-c1n[nH]c(=S)n1Cc1ccccc1,-1.7,nt
O=C1C2C3c4ccccc4C(c4ccccc43)C2C(=O)N1c1ccccc1 (configuration not stated),-0.89,0.76
CC(=O)N1CCc2cc(Br)cc(S(=O)(=O)CCC(=O)N3CCc4ccccc4C3)c21,-0.4,nt
CSc1ncc(Cl)c(C(=O)Nc2sc3c(c2C(=O)NCC2CCCO2)CCCC3)n1 (configuration not stated),-2,2.4
O=C(Nc1cnc2ccccc2c1)c1cccs1,nt,1.7
CSc1ncc(-c2nnc(SCC(=O)Nc3ccc(Cl)cc3)n2C)n1C,-1.9,nt
COc1ccc(OC)c(NC(=O)c2csc(Cl)c2OC)c1,-1.1,nt
COC(=O)c1sccc1-n1c(N)c(C#N)c(N)c(C#N)c1=S,-1.9,nt
O=C(CCCn1sc2ccccc2c1=O)NCc1ccco1,0.2,2.9
N#Cc1nc(/C=C/c2ccc(F)cc2)oc1N1CCN(C(=O)Cc2cccc3ccccc23)CC1,-1.4,-1.6
CCOc1cc(C2C3=C(CC(C)(C)CC3=O)Nc3[nH]n(-c4ccccc4)c(=O)c32)ccc1O (configuration not stated),-3.3,1.3
CCCCN1C(=O)c2[nH]nc(-c3ccccc3O)c2C1c1cccc(O)c1 (configuration not stated),0.53,1.6
O=C(Nc1ccccc1C(F)(F)F)N1CCN(c2ccc3nncn3n2)CC1,-0.03,nt
C=CCN1C(=O)/C(=C2/C(=O)N(S(=O)(=O)c3ccc(OC)cc3)c3ccccc32)SC1=S,-0.38,nt
c1csc(CCNc2nn3cnnc3c3ccccc23)c1,-1.3,-0.73
COc1ccccc1C1CC(=O)Oc2c1c(=O)n(C)c1ccccc21 (configuration not stated),0.98,0.21
O=c1c(S(=O)(=O)c2ccccc2)c[nH]c2c(F)cc(F)cc12,-0.72,-1.3
CC(C)c1ccc(C(C(=O)NC2CCCC2)N(C(=O)c2cnccn2)c2cccs2)cc1 (configuration not stated),-1.6,-0.7
CCOC(=O)C(CC)n1cnc2c(oc3ccccc32)c1=O (configuration not stated),nt,0.79
Cc1ccc(C)c(N2CCN(c3nc4ccccc4n4c(C)nnc34)CC2)c1,-2,1.4
Cc1occc1-c1nnc2sc(/C=C/c3ccc(C(C)C)cc3)nn12,-1.1,-1
Fc1cccc(Cl)c1CSc1ccc(-c2ccccn2)nn1,nt,0.93
CC(C)(O)C#Cc1ccc(/C=N/Nc2ccccc2)cc1,0.86,nt
Cc1cc(C)c(NS(=O)(=O)c2c(C)nc3sccn3c2=O)c(C)c1,nt,-0.28
Cc1ccc(OCC(=O)OCc2cc(=O)n3cc(C)sc3n2)cc1,nt,0.69
CNc1ncnc2c1c(-c1ccccc1)cn2-c1ccc(Cl)cc1,-1,-1.1
COc1ccc(S(=O)(=O)NCCc2csc3nc(-c4ccc(OC)c(OC)c4)nn23)cc1,nt,2
CC1=C(C(=O)Nc2cc(C(=O)NCc3cccnc3)ccc2C)SCCO1,nt,1.6
Cc1ccc(-c2nc3sccn3c2Nc2ccccc2)cc1,-1.3,-1
COc1ccc(-c2nnc3c4cc5c(cc4n(Cc4cccc(OC)c4)cc2-3)OCO5)cc1,-1.2,-2.3
Cn1c2c(c(=O)[nH]c1=O)C(c1ccsc1)C1=C(N2)c2ccccc2C1=O (configuration not stated),-0.99,0.25
COC(=O)CN1C(=O)CSc2ccc(S(=O)(=O)Nc3cccc(SC)c3)cc21,nt,0.11
CCOc1ccccc1-c1nn2c(Cn3cnc4ccccc43)nnc2s1,-0.49,0.33
COc1ccc(CNc2cc(C)nc3c(-c4ccc(OC)c(OC)c4)c(C)nn23)cc1,-2.5,0.44
CCc1nonc1NC(=O)C(C)Oc1ccc(F)cc1 (configuration not stated),-0.38,0.43
COc1cc(O)ccc1C1CC(=O)Nc2c1c(=O)nc(SCc1ccccc1F)n2C (configuration not stated),0.3,0.78
Fc1ccc(-c2noc3ncnc(Nc4ccc(F)c(Cl)c4)c23)cc1,nt,0.54
CCN(Cc1ccccc1)c1c(-c2ccc3c(c2)OCC(=O)N3)c(=O)c1=O,nt,1.1
O=C(CC1=NS(=O)(=O)c2ccccc2N1)Nc1ccc(Oc2ccccc2)cc1,nt,-0.92
COCCn1c(SCC(=O)c2ccccc2)nc2c([nH]c3ccccc32)c1=O,nt,2.3
CCOC(=O)c1c(C)csc1NC(=O)CSCC(=O)O,-1.6,nt
O=C(Cn1c(=O)oc2cc(S(=O)(=O)N3CCCC3)ccc21)NC1CCCCCCC1,-0.74,nt
CCc1nnc(NC(=O)c2nc(S(C)(=O)=O)ncc2Cl)s1,-0.17,2.6
Cc1cc(C)n(C(=O)COc2ccc3ccccc3c2Br)n1,-3.2,0.76
O=C1C(=O)N(CCCN2CCOCC2)C(c2ccco2)/C1=C(\O)c1ccccc1 (configuration not stated),-0.78,0.89
CCN1C(=O)c2ccccc2Sc2ccc(NC(=O)N3CCC(C)CC3)cc21,-1.1,-0.04
O=C(Cn1nnc(-c2ccc(C(F)(F)F)cc2)n1)Sc1ccc(F)cc1F,-0.87,nt
CCc1cc(C(=O)c2ccc(OC)cc2)c(NC(=O)CC(C)(C)CC(=O)O)s1,1.8,nt
CCC(C)NC(=O)c1oc2ccc(S(=O)(=O)N3CCCC(C)C3)cc2c1C (configuration not stated),-0.13,nt
CCCc1nn2c(=O)cc(CSc3n[nH]c(CC)n3)nc2s1,nt,-0.61
CCOC(=O)c1[nH]c(C)c(C(=O)NC2CCCCC2)c1C,-0.2,1.8
O=C(COCc1cc(-c2ccc3c(c2)OCO3)on1)Nc1cc(-c2ccccc2Cl)no1,nt,0.02
CCOc1ccc(-c2noc(Cn3c(=O)[nH]c4cc5c(cc4c3=O)OCO5)n2)cc1,nt,-0.08
Cn1cnc(S(=O)(=O)NCc2ccccc2)c1,nt,0.53

# An excerpt from above in order of length of the SMILES, highest first:
SMILES,CDC25B CDK2 inh,TAR Tat displ
COc1ccc(-c2nnc3c4cc5c(cc4n(Cc4cccc(OC)c4)cc2-3)OCO5)cc1,-1.2,-2.3
O=C(COCc1cc(-c2ccc3c(c2)OCO3)on1)Nc1cc(-c2ccccc2Cl)no1,nt,0.02
Cc1ccc(-c2nc3sccn3c2Nc2ccccc2)cc1,-1.3,-1

# More records follow.
SMILES,CDC25B CDK2 inh,TAR Tat displ
COc1ccc(/C=C(\NC(=O)c2ccccc2)C(=O)N/N=C/c2ccc3c(c2)OCO3)cc1,-2,nt
O=C(CC1(O)C(=O)N(Cc2ccccc2)c2ccc(Cl)cc21)c1ccccc1 (configuration not stated),0.1,nt
Cc1cc2c3c([nH]c2cc1S(=O)(=O)N1CCc2ccccc2C1)CC(C)(C)CC3=O,nt,0.16
Cc1ccc(N2CC(O)=C(c3nc4ccccc4[nH]3)C2=N)c(Br)c1,-1.6,1.6
CCc1nn2cc(C(C)(C)C)nc2s1,-2,nt
CC1CCCN(C(=O)C2CCCN(S(=O)(=O)c3ccc4c(c3)oc(=O)n4C)C2)C1 (configuration not stated),-0.13,nt
O=C(O)c1ccc(S(=O)(=O)NC2CCS(=O)(=O)C2)cc1 (configuration not stated),0.38,1.7
CCCCOC(=O)C(C)Sc1n[nH]c(=O)[nH]c1=O (configuration not stated),-0.39,3.1
Cc1n[nH]c(=O)nc1Nc1cccc(Cl)c1,1.2,nt
O=C(CN1C(=O)CCCc2ccccc21)N1CCCC1,nt,0.97
CCN1CCN(c2nc(NCCCN3CCOCC3)nc3c2cnn3C)CC1,nt,1.9
COc1ccc(-c2nc3nc(C)cc(N(C)CCO)n3n2)cc1,-1.6,0.64
CCOc1cccc(C2C(C(=O)OC(C)C)=C(C)Nc3nc4ccccc4n32)c1 (configuration not stated),-0.74,-0.93
CC(C)C(=O)NCC(c1cccs1)S(=O)(=O)c1ccc(Cl)cc1 (configuration not stated),nt,0.66
O=C(NC1CCCCC1)C1Cc2ccccc2N1C(=O)c1ccccc1 (configuration not stated),nt,1.7
Fc1ccc(-c2noc3ncnc(Nc4ccc(Cl)cc4)c23)cc1,nt,0.5
COc1ccc(-c2onc(C)c2C)cc1S(=O)(=O)NC1CCCc2ccccc21 (configuration not stated),nt,2.2
CN(C)CCNC(=O)c1cnc2sc3c(n2c1=O)CCCC3,nt,0.74
C=CCn1cnc2c1c(=O)n(C)c(=O)n2C,-1.9,nt
COc1ccc(-n2c(Cc3cccn3C)nnc2SCC(=O)Nc2ccc3c(c2)OCCO3)cc1,-1.1,-1.7
COc1cc(NC(c2nnc(-c3ccccc3)o2)c2ccccc2F)cc(OC)c1 (configuration not stated),nt,-0.03
CC(C)c1ccc(Cn2c(CCCO)nc3ccccc32)cc1,-0.11,0.72
CCOc1ccc(-c2n[nH]c3c2C(c2ccc(O)c(OCC)c2)NC3=O)cc1 (configuration not stated),0.39,-0.71
O=C1COc2ccc(S(=O)(=O)N3CCC(C(=O)N4CCc5ccccc5C4)CC3)cc2N1,nt,1.7
C=CCOC(=O)C1=C(C)Nc2nc(SCCC)[nH]c(=O)c2C1c1ccc(C(=O)OC)cc1 (configuration not stated),-0.97,0.46
O=C(OCc1cc(=O)n2nc(C3CC3)sc2n1)c1cccc(Cl)c1,nt,1.1
O=C(Nc1ccccc1F)N1CC=C(c2c[nH]c3ccccc23)CC1,nt,-6
O=c1[nH]ccc2nc(NCc3ccccc3)ncc12,-1.3,2.8
C[C@H]1CC[C@@]2(OC1)O[C@H]1C[C@H]3[C@@H]4CC[C@@H]5C[C@@H](O)CC[C@]5(C)[C@H]4CC[C@]3(C)[C@H]1[C@@H]2C,nt,3
COc1ccc(-c2cc3c(S(=O)(=O)c4ccc(OC)c(OC)c4)nccn3n2)cc1,nt,0.71

# Looked up above:
# Reading of CC1CCCN(C(=O)C2CCCN(S(=O)(=O)c3ccc4c(c3)oc(=O)n4C)C2)C1 (configuration not stated) in CDC25B CDK2 inh: -0.13
# Reading of CCOC(=O)C(CC)n1cnc2c(oc3ccccc32)c1=O (configuration not stated) in TAR Tat displ: 0.79
# Reading of CC(C)c1ccc(Cn2c(CCCO)nc3ccccc32)cc1 in TAR Tat displ: 0.72

# Returning to the listing; the 2 compounds before the break are reprinted first.
SMILES,CDC25B CDK2 inh,TAR Tat displ
C[C@H]1CC[C@@]2(OC1)O[C@H]1C[C@H]3[C@@H]4CC[C@@H]5C[C@@H](O)CC[C@]5(C)[C@H]4CC[C@]3(C)[C@H]1[C@@H]2C,nt,3
COc1ccc(-c2cc3c(S(=O)(=O)c4ccc(OC)c(OC)c4)nccn3n2)cc1,nt,0.71
CCNc1nc(N(C)C)nc2c1cnn2C,nt,1.7
CSc1nc(-c2ccccc2)nc(SC)c1C(C)=O,-2.5,nt
FC(F)(F)c1cccc(-n2c(-c3ccncc3)n[nH]c2=S)c1,-1.5,nt
Cc1noc2ncnc(N3CCN(c4ccccn4)CC3)c12,nt,0.17
NS(=O)(=O)c1ccc(NC(=O)Cc2cccs2)cc1,-1.3,nt
Cc1cc(C)cc(NS(=O)(=O)c2c(C)noc2C)c1,-2.9,2.5
CC1CCC(NS(=O)(=O)c2ccc(CN3C(=O)c4cccnc4C3=O)cc2)CC1 (configuration not stated),nt,0.71
CCCCNS(=O)(=O)c1ccc2[nH]c(=O)ccc2c1,nt,2.1
CCOc1ccc(-n2nnc3c(sc4nc(C)c(Br)c(COC)c43)c2=O)cc1,-1.5,0.95
COC(=O)c1sc(SC)c(C#N)c1-c1cccc(C(F)(F)F)c1,-0.3,nt
COc1ccc2cc3c(nc2c1)N(C(=O)c1ccc(Br)cc1)CC3,-3.9,0.27
O=S(=O)(c1ccc(-c2cn3ccccc3n2)cc1)N1CCCCCC1,-0.74,nt
O=C(c1cccs1)N(Cc1nc(-c2ccc(Cl)cc2)no1)C1CCCCC1,-1.7,-1.3
CCOc1ccc(-n2c(SC)nnc2-c2c[nH]c3ccccc23)cc1,-1.9,nt
COC(=O)C1=C(C)NC(=S)NC1c1ccc(O)cc1 (configuration not stated),-2.3,nt
COc1ccc2cc(-n3nc(C)cc3C)c(-n3nc(C)cc3C)cc2c1,-0.19,0.5
COc1ccc(S(=O)(=O)Nc2nnc(CC(C)(C)C)s2)cc1,0.69,-0.74
Cn1cc(C2N3CC4(C)CN2CC(C)(C3)C4O)c2ccccc21 (configuration not stated),-1.3,nt
CCCN(CCC)C(=O)CSc1nc2ncccc2[nH]1,-0.98,0.22
Cc1cccc(-n2cc(-c3ccccc3)c3c(N(C)C)ncnc32)c1,-1.8,0.34
Cc1cccc(C)c1NC(=O)CSC(=O)c1cccs1,-1.2,nt
Fc1ccc2c(c1)-c1c(cnc3cc(-c4ccccc4)nn13)CO2,-1.6,-0.31
Cc1cccc(NS(=O)(=O)C2CCS(=O)(=O)C2)c1C (configuration not stated),1.5,1.5
Fc1ccc(CNCc2ccc3c(c2)OCO3)cc1,0.45,-0.67
O=C1CS/C(=C\C(=O)N2CCOCC2)N1,-2.1,nt
NC(=O)c1ccccc1Sc1ccccc1[N+](=O)[O-],-2.6,nt
O=C(Nc1ccc2nsnc2c1)c1csnn1,-2.3,0.31
O=c1sc(N2CCN(C3CCCCC3)CC2)nc2ccsc12,-0.51,0.75
